LT uptake inh = blocks cellular internalization of anthrax lethal toxin | Cells, anthrax lethal toxin internalization, FRET ratio (460/530) | Potency, µM (highest dose often 40 µM), without a hit: at the highest dose activity change, negative = inhibition, usual class: inhibitors | hit rate 0.67% among 70,000 | AID 912; active = well fitted falling ratio curve with the 530 nm signal flat; inconclusive = other ratio curves, or a change in one channel alone; inactive = flat curves in the ratio and both channels; the % refers to the ratio; further: on the % scale 0 is the no-effect control and ±100 the full control effect; nearly all actives have a fitted effect of over 50% in size; tested in ME-180 cells; beta-lactamase reporter
Prx2 Sm inh = inhibitors of Schistosoma mansoni peroxiredoxin 2. hit rate 0.07% among 65,000. S. mansoni Prx2 activity coupled to TGR/GSH (TGR is thioredoxin glutathione reductase), NADPH fluorescence loss, qHTS; some inactives read as strong as hits. AID 448. Potency, µM; active means full or partial inhibition curve with a strong effect at the top dose; inconclusive means weaker partial or single-point curve; inactive means no accepted curve; further: series up to 57 µM; many of its hits are not listed in these tables
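Prx2 inhibition was measured as reduced NADPH consumption when electrons flowed from NADPH through TGR and glutathione to Prx2 and H2O2. Plates were read kinetically over 8 min; enzyme reagents were held at 4 deg C during dispensing.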
An asterisk follows results filed as active; u = inconclusive; x = not tested or not shown; & = joins results of further samples; [ ] = dose if it differs, or a comment. Potency means the concentration at half of the fitted maximal effect. These rows are one share of the data. The share of hits here may be higher or lower than overall.

SMILES	LT uptake inh	Prx2 Sm inh
COC(=O)N1CC=CC1(C)C(=O)NCc1ccc(C)o1 (configuration not stated)	8%	x
Cc1ccc(S(=O)(=O)N(C)CCCC(=O)Nc2ccccn2)cc1	-11%	>57
c1ccc(Cn2nnc3c(NCc4ccc5c(c4)OCO5)nc(C4CC4)nc32)cc1	2%	>57
COc1ccc(Cl)cc1N1C(=O)C2CCCN2C1c1cccc(F)c1 (configuration not stated)	-24%	>57
COc1ccc(-n2c(Cc3cccn3C)nnc2SCC(=O)Nc2nccs2)cc1	5%	u
C=CCNCc1cccn1-c1ccccc1	0%	>57
c1c2c(cc3sc(N4CCOCC4)nc13)OCCO2	5%	>57
CCCC(c1nnnn1Cc1ccco1)N1CCN(c2cc(Cl)ccc2C)CC1 (configuration not stated)	u	>57
N#Cc1cccc(-c2nccc(NCc3cccnc3)n2)c1	5%	>57
Nc1c(Cl)c(Cl)nc(C(=O)O)c1Cl	-2%	x
COCC(=O)Nc1nc2n(n1)C(c1ccc(Cl)cc1)CC(c1ccc(OC)cc1)N2 (configuration not stated)	x	>57
Cc1ccc2oc(=O)c3cnn(CC(=O)NC4CCC(C)CC4)c3c2c1 (configuration not stated)	-7%	>57
O=C(c1cccnc1Nc1ccc2c(c1)CCC2)N1CCOCC1	u	u
CC1(C)CSC(=S)N1S(=O)(=O)c1ccccc1	-3%	>57
CCOc1ccc(C2N(c3cc(Cl)ccc3OC)C(=O)C3CCCN32)cc1OC (configuration not stated)	-2%	>57
CCc1ccccc1NC1=NCC(=O)N1Cc1ccc(OC)cc1	-26%	>57
CCN(CC)CCNC(=O)CCc1n[nH]c(=O)c2ccccc12	-9%	x
CN(C1CCCCC1)S(=O)(=O)c1ccc(C(=O)O)cc1	-7%	>57
CCNS(=O)(=O)c1ccc2nc(NC(=O)c3cccnc3)sc2c1	u	>57
Cc1ccc(CNC(=O)CNS(=O)(=O)c2cccc3nsnc23)cc1	5%	>57
Cc1cc(NC(=O)c2ccco2)ncc1NC(=O)Cc1ccccc1	-7%	>57
N#CCCN(CC(=O)O)S(=O)(=O)c1ccccc1	-1%	>57
O=C(Nc1ccc(Nc2ccccc2)cc1)N1CCOCC1	1%	>57
Cc1nc2cnc(N3CCN(C)CC3)nc2n(Cc2ccc(F)cc2)c1=O	-2%	>57
CC1(c2ccc(OC(F)F)cc2)NC(=O)N(CC(=O)NC2CCCCC2)C1=O (configuration not stated)	-7%	>57

Complete entries, quoted from the list. Values in the order: LT uptake inh | Prx2 Sm inh
O=C(Nc1ccc(Nc2ccccc2)cc1)N1CCOCC1 in the list: 1% | >57
COCC(=O)Nc1nc2n(n1)C(c1ccc(Cl)cc1)CC(c1ccc(OC)cc1)N2 (configuration not stated) in the list: x | >57
c1c2c(cc3sc(N4CCOCC4)nc13)OCCO2 in the list: 5% | >57

Sorted by SMILES length (highest first): some entries from above.
SMILES	LT uptake inh	Prx2 Sm inh
CCCC(c1nnnn1Cc1ccco1)N1CCN(c2cc(Cl)ccc2C)CC1 (configuration not stated)	u	>57
CCNS(=O)(=O)c1ccc2nc(NC(=O)c3cccnc3)sc2c1	u	>57
N#CCCN(CC(=O)O)S(=O)(=O)c1ccccc1	-1%	>57

Back to the main list, starting six compounds before the break.
SMILES	LT uptake inh	Prx2 Sm inh
Cc1ccc(CNC(=O)CNS(=O)(=O)c2cccc3nsnc23)cc1	5%	>57
Cc1cc(NC(=O)c2ccco2)ncc1NC(=O)Cc1ccccc1	-7%	>57
N#CCCN(CC(=O)O)S(=O)(=O)c1ccccc1	-1%	>57
O=C(Nc1ccc(Nc2ccccc2)cc1)N1CCOCC1	1%	>57
Cc1nc2cnc(N3CCN(C)CC3)nc2n(Cc2ccc(F)cc2)c1=O	-2%	>57
CC1(c2ccc(OC(F)F)cc2)NC(=O)N(CC(=O)NC2CCCCC2)C1=O (configuration not stated)	-7%	>57
COc1ccc(N(CC(=O)N2CCc3ccccc3C2)S(=O)(=O)c2c(C)nn(C)c2C)cc1	2%	>57
COC(=O)C1C2C=CC3(CN(C(C)c4ccc(OC)cc4)C(=O)C13)O2 (configuration not stated)	13%	>57
Cc1nc2cccc([N+](=O)[O-])c2n1CCCN(C)C	-3%[8 µM]	>57
N#CCCN	-12%	>57
CCN(CC(=O)Nc1ccc2c(c1)OCO2)Cc1nc2ccccc2c(=O)[nH]1	-7%	>57
COCC(=O)Nc1cccc2ccccc12	x	>57
Cc1ccc(NC(=O)N2CCC(C(=O)NCc3ccc(F)cc3)CC2)cc1	-7%	>57
C=CCC(O)CC1C2C(CC(O)CC=C)C3C1C3C2OC(C)(C)C (configuration not stated)	-17%[8 µM]	x
O=C(Cn1c(=O)oc2cc(S(=O)(=O)NCc3ccccc3)ccc21)NCc1ccco1	-6%	>57
CCc1c(C(=O)OC)ncc2[nH]c3cc(OC)c(OC)cc3c12	-4%	>57
CCc1c(O)nc(N2CCN(Cc3ccccc3)CC2)[nH]c1=O	-5%	>57
O=C(c1cc(C(F)(F)F)cc(C(F)(F)F)c1)N1CCC2(CC1)CN(c1ccccc1)C2	19%	u
C=CCc1cccc(CNc2c(C)n(C)n(-c3ccccc3)c2=O)c1O	u	>57
CCn1c(SCC(=O)Nc2nc(-c3ccccc3)cs2)nnc1-c1ccccc1	u	>57
CC(C)(C)Cc1nnc(NS(=O)(=O)Cc2ccccc2)s1	0%	>57
Cc1ccnc(NC(=O)c2cc(S(=O)(=O)N3CCCCC3)ccc2Cl)c1	-15%	>57
CC(=O)c1ccc(-n2nncc2C(C)(C)C)cc1	-8%	>57
CC1(C)CC(=O)c2cnc(NC(=O)Cc3ccc(Cl)cc3)nc2C1	-13%	x
Nc1nc2n(n1)C1(CCCCC1)C1=C(CCCC1)N2	2%	>57
CC1=C(C)CC(c2ccccc2)C(C(=O)c2ccccc2O)C1 (configuration not stated)	-47%[8 µM]	x
O=C(O)C1Nc2c(C(=O)N3CCOCC3)cccc2C2C=CCC12 (configuration not stated)	-16%	x
CCOC(=O)Nc1ccc(C(=O)Oc2ccccc2)c(O)c1	u	>57
CC(C)(C)c1ccc(C(=O)Nc2cnccn2)cc1	-3%	>57
C1=Nc2c(Nc3ccccc3)ncnc2Oc2ccccc21	-30%	>57
COc1ccc(CC(=O)c2cc(OC)c(OC)cc2CC(=O)O)cc1OC	13%	x

Continuation:
SMILES	LT uptake inh	Prx2 Sm inh
Cc1cc(C)n(-c2cc(-n3nc(C)cc3C)ncn2)n1	-23%	x
CCN(CC)C(=O)C1CCCc2c1[nH]c1ccc(Cl)cc21 (configuration not stated)	-17%	x
CCOC(=O)N1CCC(Nc2nc3ccccc3n3cnnc23)CC1	3%	>57
CCOC(=O)N1CCC(NC(=O)C2CCCN(c3nc4ccccc4o3)C2)CC1 (configuration not stated)	-8%	>57
COc1cc(CC(=O)O)ccc1O	u	>57
C=C(C)CC1N(c2cccc(OC)c2)C(=O)C2C(C(=O)O)C3C=CC21O3 (configuration not stated)	-9%	>57
COc1ccc(-n2c(C)cc(C(=O)CSc3nnc(-c4ccoc4C)n3C)c2C)cc1	-15%	>57
Cn1c(=O)c2c3c(sc2n2c(SCc4ccc5c(c4)OCO5)nnc12)COC(C)(C)C3	0%	x
COc1cc2c(C)nc3onc(-c4ccccc4)c3c2cc1OC	1µM*	>57
CC1CCc2nn(CC(=O)NCc3ccc4c(c3)OCO4)cc2C1 (configuration not stated)	3%	>57
COc1ccc(-n2c(Cn3c(=O)sc4ccccc43)nnc2SCC(=O)N2CCCC2)cc1	u	>57
O=C(C1CC1)N1CCc2cc(Br)cc(S(=O)(=O)N3CCCCCC3)c21	u	>57
COC(=O)[C@@]1(Cc2ccc(OC)cc2)[C@H]2c3cc(C(=O)N(C)C)n(CCc4c[nH]c5ccc(O)cc45)c3C[C@H]2CN1C(=O)c1ccccc1	u	>57
O=C1C2CCCN2C(c2ccccc2)N1c1ccccn1 (configuration not stated)	-7%	>57
Cc1cc(C)c(C#N)c(Nc2ccc3c(c2)OCCO3)n1	14%	>57
O=C(c1csnn1)N1CCC2(CC1)CCN(c1ccncc1)CC2	u	>57
Cc1cc2c(=O)n(Cc3ccco3)c(SCC(=O)c3ccc(Cl)s3)nc2s1	u	>57
COc1cc(Br)cc2cc(C(=O)N3CCN(C(=O)c4ccco4)CC3)c(=O)oc12	12%	>57
O=C(Nc1ccc2c(c1)OCO2)c1cccc(F)c1	5%	>57
COC(=O)[C@@]1(Cc2ccc(F)cc2)[C@H]2c3cc(C(=O)N4CCCC4)n(Cc4ccc(C(F)(F)F)nc4)c3C[C@H]2CN1C(=O)c1ccccc1	u	>57
O=C(c1cc(-c2ccccc2)nc2ccccc12)N1CCN(c2ccccn2)CC1	x	>57
O=C(NCCn1ccc2ccccc21)c1ccc(S(=O)(=O)N2CCOCC2)cc1	8%	>57
CCOc1ccc(N(CC(=O)OC)S(=O)(=O)c2ccc(OC)c(OC)c2)cc1	-5%	>57
O=C(c1ccco1)N1CCC2(CCN(Cc3ccncc3)CC2)CC1	14%	>57
N#Cc1c(SCC(N)=O)nc(-c2ccccc2)c2c1CCCC2	-17%	>57

Next section.
SMILES	LT uptake inh	Prx2 Sm inh
CCN1CCN(CCNC(=O)C2CCCN(Cc3nc(-c4cccc(Cl)c4)oc3C)C2)CC1 (configuration not stated)	4µM*	>57
CCOC(=O)C(NC(C)=O)(N1CCc2ccccc2C1)C(F)(F)F (configuration not stated)	u	>57
COC(=O)C1=C(C)NC(C)=C(C(=O)OC)C1c1ccccc1OCc1c(C)no[n+]1[O-]	2%	>57
CN(C)Cc1ccccc1-c1cc(NCc2cccs2)ncn1	-6%	>57
COc1ccc(S(=O)(=O)Nc2ccc(C(F)(F)F)cc2)cc1OC	10%	x
COc1ccc(S(=O)(=O)Nc2ccccc2SC)cc1C	-3%	>57
O=C1NC(=O)C2(Cc3ccccc3N3CCCC32)C(=O)N1c1ccccc1 (configuration not stated)	x	>57
C=C(Br)CN(C)CC(=C)Br	-1%[8 µM]	>57
NC(=O)C1CCCNC1 (configuration not stated)	-3%	>57
CCC(=O)N1C(C(=O)O)CSC1c1ccc(OC)cc1 (configuration not stated)	0%	>57
COc1ccc(C2SCCN2S(=O)(=O)c2ccccc2)cc1OC (configuration not stated)	-18%	>57
CCn1c(C)c(C(C)=O)c(N2CCN(C(=O)c3ccco3)CC2)nc1=S	-1%	>57
Cc1ccc(S(=O)(=O)C2(C(=O)N3CCN(C4CCCCC4)CC3)CC2)cc1	-5%	>57
C[N+]1(CCC(=O)c2ccco2)CC2CCC(CC2)C1 (configuration not stated)	-13%[8 µM]	>57
CCOC(=O)c1ccccc1NC(=O)CSc1nnnn1C1CCCCC1	-20%	>57
CCC(Sc1nc2ccccc2c(=O)n1CCN1CCOCC1)C(=O)NCc1cccnc1 (configuration not stated)	9%	>57
Cc1cc2c(nn1)CCc1nonc1-2	u	>57
Nc1c(C(=O)OCC2CCCO2)c2nc3ccccc3nc2n1C1CCCC1 (configuration not stated)	-7%	>57
O=C(CSc1nnc(-c2ccco2)o1)NC(=O)C1COc2ccccc2O1 (configuration not stated)	-2%	>57
CC(=O)c1cc2c(O)c(O)ccc2o1	u	>57
Cc1cc(C)c(S(=O)(=O)Nc2ccc[nH]c2=O)c(C)c1	0%	>57
O=C(CC1(O)C(=O)Nc2ccccc21)c1cccnc1 (configuration not stated)	9%	>57
COC(=O)c1ccc(COc2ccc3c4c(c(=O)oc3c2)CCC4)o1	-22%	>57
CN(C)S(=O)(=O)c1cccc(-c2cn3ccccc3n2)c1	x	>57
COc1ccc(-n2c(O)c(C(C)=NC3CC3)c(=O)[nH]c2=O)cc1	9%	>57

Next part:
SMILES	LT uptake inh	Prx2 Sm inh
C=CCOC(=O)COCCC(C)C	5%	x
Cc1cccc(NC(=O)C2CCN(c3nc(C)cc(C)n3)CC2)c1	8%	>57
COC(=O)c1ccccc1NC(=O)c1cc(-c2cccc(OC)c2)on1	7%	>57
O=C(CSc1nc2c(c(=O)n1-c1ccccc1)SCC2)N1CCOCC1	19%	>57
CCCCOC(=O)Cc1c(O)c2ccccc2[nH]c1=O	2%	x
c1ccc(OCC2CO2)cc1 (configuration not stated)	-3%	x
COC(=O)C1=C(C)Nc2c(c(=O)n(C)c(=O)n2C)C1c1cccs1 (configuration not stated)	-16%	>57
CC1(C)CC(=O)C2=C(C1)N=C1SCCC(=O)N1C2c1ccccc1 (configuration not stated)	3%	>57
O=C(Cn1nnc(-c2cc(Cl)ccc2-n2cnnn2)n1)N1CCCc2ccccc21	-21%	>57
CCOC(=O)c1c(C)oc2cc(Br)c(OC)cc12	-23%	x
Cc1nnc(SCC(=O)Nc2ncc(Cc3ccc(F)cc3)s2)n1N	8%	>57
O=C1C(=O)c2ccccc2C(O)=C1C(CCc1ccccc1)C1=C(O)c2ccccc2C(=O)C1=O	7%[8 µM]	>57
COc1ccc(Nc2nc(N)nc(CN3CCc4ccccc4C3)n2)cc1	-23%	>57
COc1ccc2c(OC)c3ccoc3nc2c1OC	19%	>57&>57
COc1ccc(OC)c(NC(=O)CS(=O)(=O)c2ccccc2)c1	x	>57
O=C(OCC(=O)c1cccs1)c1ccc(NC(=O)c2ccco2)cc1	-6%	>57

From PubChem BioAssay
